YopH PTP inh – YopH tyrosine phosphatase inhibitors, primary screen, biochemical, fluorescence Ex485/Em525; YopH tyrosine phosphatase [Yersinia enterocolitica]; inhibition, %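 (about 10 µM by stock and volumes)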; 140,000 tested, 0.16% active;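 active = inhibition of 50% or more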;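 also: controls were vehicle for no effect and minimum signal wells for full effect; inactives centre near -20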
Mtb growth – M. tuberculosis H37Rv growth inhibitors, H37Rv strain (AID 1626); M. tuberculosis H37Rv growth inhibition; higher % means a stronger effect; one-dose inhibition, % at 10 µM; IC50 in µM for titrated hits; 220,000 tested, 0.95% active;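 active = confirmed in a dose series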;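 also: bacteria incubated seven days before Alamar blue readout; 0% = bacteria only wells and 100% = bacteria with antibiotic wells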
Mtb bLac sens – beta-lactam sensitization of Mtb H37Rv, H37Rv. M. tuberculosis H37Rv growth with meropenem, percent inhibition; hits of this screen are not shown here. inhibition, % at 25 µM. 330,000 tested, 0.27% active. AID 434955, 2010;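 active = about 74% or more and at least 40 points above the plate without the antibiotic, then above 30% in a dose series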;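 also: growth measured after seven days incubation then overnight dye step; 0% = bacteria only wells and 100% = bacteria with antibiotic; twin plates without the antibiotic show which effects depend on it; some results filed as inactive read as strong as hits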
Arbovirus anti – antivirals against arbovirus infection, primary screen, cell-based, full library, 10K replicate subset | arbovirus infection cell-based antiviral screen | inhibition, % at 10 µM | 200,000 tested, 0.37% active | AID 1251, 2008;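 active = inhibition from about 30%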;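 also: bluetongue infection of BSR cells; cell survival read as ATP light after 72 h; 0% = infected wells without compound and 100% = uninfected wells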
RecA splice inh – Mtb RecA intein splicing inhibitors, primary screen, biochemical, fluorescence, HTS; Protein RecA (Mycobacterium tuberculosis (strain ATCC 25618 / H37Rv)), P9WHJ3; cell-free RecA intein splicing; inhibition, %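 (about 9 µM by stock and volumes)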; 290,000 tested, 0.75% active; AID 2221, 2009; in the data active = inhibition above about 30%;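 also: 0% = vehicle wells and 100% = reference inhibitor control wells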
Target sequence (P9WHJ3 whole entry, looked up, canonical isoform): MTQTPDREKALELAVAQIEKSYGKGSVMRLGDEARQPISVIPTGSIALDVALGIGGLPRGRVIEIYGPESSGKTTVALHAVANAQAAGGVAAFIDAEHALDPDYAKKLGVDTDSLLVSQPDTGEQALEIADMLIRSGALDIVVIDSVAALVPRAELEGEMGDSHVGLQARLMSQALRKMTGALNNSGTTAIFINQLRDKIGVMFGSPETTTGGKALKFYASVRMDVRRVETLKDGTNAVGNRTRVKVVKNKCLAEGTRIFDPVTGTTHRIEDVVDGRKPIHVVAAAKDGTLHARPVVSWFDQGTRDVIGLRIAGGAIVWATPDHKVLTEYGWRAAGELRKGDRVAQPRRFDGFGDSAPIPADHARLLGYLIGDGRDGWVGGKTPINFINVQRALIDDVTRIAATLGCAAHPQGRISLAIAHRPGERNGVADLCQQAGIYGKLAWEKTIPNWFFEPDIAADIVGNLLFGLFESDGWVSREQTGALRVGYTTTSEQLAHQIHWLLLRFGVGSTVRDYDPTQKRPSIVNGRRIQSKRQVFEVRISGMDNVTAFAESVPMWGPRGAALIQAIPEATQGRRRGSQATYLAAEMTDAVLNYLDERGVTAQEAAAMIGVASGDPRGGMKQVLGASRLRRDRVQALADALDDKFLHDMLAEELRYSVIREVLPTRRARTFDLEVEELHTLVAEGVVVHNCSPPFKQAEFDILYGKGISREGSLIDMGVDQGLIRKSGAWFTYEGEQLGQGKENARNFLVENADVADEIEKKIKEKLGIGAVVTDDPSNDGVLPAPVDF
Numbers without * were called inactive; x = not tested or not shown.

| cpd | compound | YopH PTP inh | Mtb growth | Mtb bLac sens |
| --- | --- | --- | --- | --- |
| 1 | CCOC(=O)C1=C(CC)Nc2ccccc2N/C1=N\S(=O)(=O)c1ccc2ccccc2c1 | x | -8% | -1 |
| 2 | Cc1ccc(-c2nonc2NC(=O)c2ccco2)cc1 | x | x | 4 |
| 3 | COc1ccc(CCC(=O)NCCc2nc3ccccc3[nH]2)cc1 | x | -4% | -1 |
| 4 | Cc1cccc(NC(=O)CSc2nnc(CNC(=O)c3ccc(S(=O)(=O)N(C)C)cc3)n2-c2cccc(C)c2)c1 | -26 | 3% | -5 |
| 5 | Cc1cc(C)n(-c2c(F)c(F)c(CO)c(F)c2F)n1 | -18 | -4% | 1 |
| 6 | O=C(N/N=C(\c1ccccc1)c1cccnc1)c1cc(O)ccc1O | x | x | -11 |
| 7 | CC(C)N(Cc1nc(-c2ccccc2)no1)C(=O)CSc1ccccc1 | 2 | -4% | -12 |
| 8 | CC12CCC(C/C1=N/NC(=O)COc1ccccc1Cl)C2(C)C (configuration not stated) | x | 1% | 6 |
| 9 | CCOc1c(O)ccc(C2NC(=O)N(C)C(C)=C2C(=O)OC)c1[N+](=O)[O-] (configuration not stated) | x | 3% | 15 |
| 10 | CC(C)N(Cc1nc(-c2ccc3c(c2)OCO3)no1)Cc1nccn1C | x | -2% | -1 |
| 11 | CCOC(=O)Nc1n[nH]c(NC(=O)OCC)c1[N+](=O)[O-] | x | 0% | -2 |
| 12 | COc1ccccc1N1C(=O)C2C(C(=O)c3ccccc3)=NN(c3ccccc3)C2C1=O (configuration not stated) | x | -3% | -4 |

| cpd | Arbovirus anti | RecA splice inh |
| --- | --- | --- |
| 1 | -3 | 8.3 |
| 2 | x | -2.7 |
| 3 | -2 | 1.1 |
| 4 | -4 | -2.0 |
| 5 | 3 | 0.4 |
| 6 | x | -3.4 |
| 7 | 0 | 4.8 |
| 8 | -6 | 2.6 |
| 9 | 0 | -0.7 |
| 10 | 4 | -2.1 |
| 11 | -1 | -1.4 |
| 12 | x | -5.7 |

Of the compounds above, these have an NH in an aromatic ring:
| cpd | compound | YopH PTP inh | Mtb growth | Mtb bLac sens |
| --- | --- | --- | --- | --- |
| 3 | COc1ccc(CCC(=O)NCCc2nc3ccccc3[nH]2)cc1 | x | -4% | -1 |
| 11 | CCOC(=O)Nc1n[nH]c(NC(=O)OCC)c1[N+](=O)[O-] | x | 0% | -2 |

| cpd | Arbovirus anti | RecA splice inh |
| --- | --- | --- |
| 3 | -2 | 1.1 |
| 11 | -1 | -1.4 |

Other results follow.
| cpd | compound | YopH PTP inh | Mtb growth | Mtb bLac sens |
| --- | --- | --- | --- | --- |
| 13 | COC(=O)c1cnn(-c2cc(Oc3ccccc3)ncn2)c1N | -32 | -2% | 5 |
| 14 | Cc1[nH]c2ccccc2c1C(=O)COC(=O)c1c(-c2c(F)cccc2Cl)noc1C | -15 | 1% | 3 |
| 15 | COc1cccc(-n2nc(-c3ccnn3-c3ccc(C)cc3)c(=O)n(C)c2=O)c1 | -1 | 26% | 97 |
| 16 | Cc1ccc(CCNS(=O)(=O)c2c(C)nc3sccn3c2=O)cc1 | x | x | -4 |
| 17 | COc1ccc(OCCC(=O)Nc2cc(C)on2)cc1 | -22 | 2% | 11 |
| 18 | CCCOc1ccc(/C(O)=C2/C(=O)C(=O)N(CCN(C)C)C2c2ccncc2)cc1 (configuration not stated) | -14 | x | -9 |
| 19 | CCC(C(=O)NCc1ccco1)N(C(=O)CNS(=O)(=O)c1ccccc1)c1ccc(F)cc1 (configuration not stated) | x | x | 5 |

| cpd | Arbovirus anti | RecA splice inh |
| --- | --- | --- |
| 13 | -4 | -0.5 |
| 14 | -25 | 7.6 |
| 15 | 1 | -1.8 |
| 16 | x | -2.0 |
| 17 | 4 | 0.6 |
| 18 | x | x |
| 19 | x | 0.4 |

Given with values under each structure: entries from further up
Fields – YopH PTP inh, Mtb growth, Mtb bLac sens, Arbovirus anti, RecA splice inh
(13) COC(=O)c1cnn(-c2cc(Oc3ccccc3)ncn2)c1N
    -32, -2%, 5, -4, -0.5
(14) Cc1[nH]c2ccccc2c1C(=O)COC(=O)c1c(-c2c(F)cccc2Cl)noc1C
    -15, 1%, 3, -25, 7.6
(15) COc1cccc(-n2nc(-c3ccnn3-c3ccc(C)cc3)c(=O)n(C)c2=O)c1
    -1, 26%, 97, 1, -1.8
(16) Cc1ccc(CCNS(=O)(=O)c2c(C)nc3sccn3c2=O)cc1
    x, x, -4, x, -2.0

Compounds above containing two or more sulfur atoms:
| cpd | compound | YopH PTP inh | Mtb growth | Mtb bLac sens |
| --- | --- | --- | --- | --- |
| 4 | Cc1cccc(NC(=O)CSc2nnc(CNC(=O)c3ccc(S(=O)(=O)N(C)C)cc3)n2-c2cccc(C)c2)c1 | -26 | 3% | -5 |
| 16 | Cc1ccc(CCNS(=O)(=O)c2c(C)nc3sccn3c2=O)cc1 | x | x | -4 |

| cpd | Arbovirus anti | RecA splice inh |
| --- | --- | --- |
| 4 | -4 | -2.0 |
| 16 | x | -2.0 |

Bioassay records (PubChem BioAssay)

A portion of the library; count on the stated rates, not on these rows.
